# VDR inh = blocks the human vitamin D receptor. AID 504847. 0.93% of 400,000 active. Potency, µM, inactives show max response, negative = inhibition, actives largely listed as inhibitors. VDR-SRC2-3 peptide fluorescence polarization, 2 h. P11473; active = well fitted inhibition curve with a large enough effect; inconclusive = small, poorly fitted or top-dose-only effect, or another doubt; inactive = no such curve, though single readings can be large or run the other way; also: series mostly up to about 120 µM
# Target sequence (P11473 whole entry, looked up): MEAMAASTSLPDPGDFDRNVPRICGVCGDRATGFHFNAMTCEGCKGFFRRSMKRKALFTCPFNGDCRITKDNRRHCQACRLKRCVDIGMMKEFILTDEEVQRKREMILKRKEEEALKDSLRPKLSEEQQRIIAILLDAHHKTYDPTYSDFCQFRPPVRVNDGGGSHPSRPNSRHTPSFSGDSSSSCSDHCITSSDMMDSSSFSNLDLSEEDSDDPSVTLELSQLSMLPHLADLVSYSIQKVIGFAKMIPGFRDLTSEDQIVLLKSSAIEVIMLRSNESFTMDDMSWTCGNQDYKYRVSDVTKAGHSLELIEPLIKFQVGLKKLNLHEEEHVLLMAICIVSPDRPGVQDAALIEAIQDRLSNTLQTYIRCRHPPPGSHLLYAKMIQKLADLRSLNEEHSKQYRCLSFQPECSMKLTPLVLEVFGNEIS
#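 The screen uses fluorescence polarization to detect compounds that interfere with recruitment of the SRC2-3 coactivator peptide to VDR; plates are read after 2 h at room temperature.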
# * = called active by the depositor; ? = inconclusive; ! = repeats disagree. % is scaled to controls: 0 for no effect and ±100 for the full control effect; potency is read from the fitted curve at half-maximal effect.
VDR inh | structure
6.5% | Brc1ccccc1-c1nnc(COc2ncnc3c2cnn3-c2ccccc2)o1
5.0% | CC(C)(O)C#Cc1ccccc1C(=O)NC(CC(N)=O)C(=O)O (centres undefined)
-16.1% | COc1cccc(-c2cncnc2NCc2cccc(C)c2)c1
-8.8% | COCCSc1nnc(NS(=O)(=O)c2ccc(F)cc2)s1
5.1% | CCCCN1C(=O)CN(C2CCCCCC2)C(=O)C1c1ccc(OCC)c(OC)c1 (centres undefined)
12.5% | O=C(CSc1nnnn1-c1ccc(F)cc1)c1ccc(O)c(O)c1
-14.0% | O=[N+]([O-])c1ccc(-c2c(-c3ccccc3)ncc3ccc(F)cc23)cc1
-1.4% | COc1ccc(/C=N/NC(=O)c2ccc(CN3c4cccc5cccc(c45)S3(=O)=O)cc2)cc1
12.9% | O=C1NC(=O)C2(CCCCCCC2)N1
3.3% | CC(C)(C)c1ccc(/C=C2/SC(N3CCCC3)=NC2=O)cc1
2.3% | CN(C)S(=O)(=O)c1cccc(C(=O)C2=C3SC=C(c4ccccc4)N3CC2)c1
4.7% | CCCCn1cc(S(=O)(=O)c2cc(C)ccc2C)c(=O)c2cc(F)c(N3CCC(C)CC3)cc21
12.7% | COCCN(C(=O)CSc1n[nH]c(-c2ccccc2)n1)c1c(N)n(CC(C)C)c(=O)[nH]c1=O
8.2% | CCN(CCCNC(=O)CCC(=O)N1CCOc2ccccc21)Cc1ccccc1
-3.1% | COc1ccc(-c2nc3cnc(N4CCNCC4)nc3n(CCc3ccccc3)c2=O)cc1
3.8% | CN1C(=C2C(=O)OC(C)(C)OC2=O)Sc2ccccc21
-1.6% | Cc1c(NC(=O)c2cc(-c3cccc(O)c3)on2)c(=O)n(-c2ccccc2)n1C
-5.9% | Cc1nc(NC(=O)c2cc3c(s2)CCCCC3)sc1C(=O)N(C)C
-7.4% | Cc1ccc(C(=O)NC(=C(Cl)Cl)S(=O)(=O)c2ccc(C)cc2)cc1
? | COc1cc(Cl)c(C)cc1NC(=O)c1cc2c(=O)oc3ccccc3c2s1
4.2% | COc1ccc(NC(=S)NC(NC(=O)c2cccc3ccccc23)C(Cl)(Cl)Cl)c([N+](=O)[O-])c1 (centres undefined)
4.9% | COC(=O)Cc1c(C(=O)OC)nnn1-c1ccc(OC(F)(F)F)cc1
39.8µM* | COc1cc(/C=C2\N=C(C)OC2=O)cc(OC)c1OC
8.5% | CC(C)CC(=O)NC(=S)Nc1cccc(NC(=O)c2ccccc2Cl)c1
4.5% | O=S(=O)(Nc1ccc(-n2cnnn2)cc1)c1ccc(Cl)s1
-11.3% | C[C@@H]1COC(=O)[C@H](CC(=O)OC(C)(C)C)C/C=C\C[C@@H](CC(=O)N(CCO)Cc2ccccc2)C(=O)N1
-22.8% | O=C(CSc1nc(O)c(Cc2ccccc2)c(=O)[nH]1)Nc1nnc(SCc2ccccc2)s1
-20.6% | C=CCNc1nc(S(=O)Cc2ccc(C)cc2)nc2c1CCCC2 (centres undefined)
13.7% | COc1ccccc1Nc1sc(C(=O)c2ccc(C)cc2C)c(N)c1S(=O)(=O)c1ccccc1
10.9% | CC(C)C(NS(=O)(=O)c1ccc(Br)s1)C(=O)O (centres undefined)

# Among those listed so far, these have a nitro group on carbon.
VDR inh | structure
-14.0% | O=[N+]([O-])c1ccc(-c2c(-c3ccccc3)ncc3ccc(F)cc23)cc1
4.2% | COc1ccc(NC(=S)NC(NC(=O)c2cccc3ccccc23)C(Cl)(Cl)Cl)c([N+](=O)[O-])c1 (centres undefined)

# Back to the main list with the 2 entries that preceded the break.
VDR inh | structure
13.7% | COc1ccccc1Nc1sc(C(=O)c2ccc(C)cc2C)c(N)c1S(=O)(=O)c1ccccc1
10.9% | CC(C)C(NS(=O)(=O)c1ccc(Br)s1)C(=O)O (centres undefined)
8.0% | CCc1ccccc1NC(=O)c1ccc2c(c1)c(C)c(C)n2Cc1ccccc1
7.4% | CCOc1ccc(N=C2NC(=O)C(CC(=O)Nc3ccc(OC)cc3)S2)cc1 (centres undefined)
-12.9% | CC(=O)c1ccc(NC(=O)CN2C(=O)CCC2=O)cc1
-0.8% | Cc1ccc2nc(N3CCOCC3)c(C=O)c(=O)n2c1
8.4% | N#Cc1ccccc1NC(=O)COC(=O)c1ccc(S(=O)(=O)N2CCCC2)cc1
-12.4% | Cc1cccc(N=NC(=S)NNc2cccc(C)c2)c1
-10.8% | O=C(CCc1nnc2ccc(N3CCCCC3)nn12)NCC1CCN(Cc2ccc(F)cc2)CC1
-6.5% | O=C(CN1CCN(c2ccccc2F)CC1)N1N=CCC1c1ccccc1 (centres undefined)
8.6% | COc1cccc(CNC(=O)C2CCC(CNS(=O)(=O)c3cccc4cccnc34)CC2)c1 (centres undefined)
-2.3% | CCOC(=O)Cn1c(-c2ccccc2)ccc(C#N)c1=O
-0.6% | O=C(CN1C(=O)NC2(CCCCCC2)C1=O)NC1CCCCCCC1
4.4% | Cc1ccc(NC(=O)CN(C)C(=O)CCC(=O)N2CCOCC2)cc1
0.1% | CSCCC(NS(=O)(=O)c1ccccc1F)C(=O)OCc1ccccc1Cl (centres undefined)
4.3% | Cc1ccc(S(=O)(=O)N(CC(=O)NCc2ccncc2)Cc2ccc(F)cc2)cc1
0.4% | N#Cc1c(-n2ncnc2-c2cccc(Cl)c2)sc2c1CCCCC2
4.8% | COc1cc(/C=N/Nc2cccc(C)c2)cc(Br)c1O
3.2% | CCN(CC)CCNC1=CC(=O)OC12CCCCC2
-0.5% | O=C(c1ccc(C(F)(F)F)cc1)C1CCCN(C(=O)CN2C(=O)CSC2=O)C1 (centres undefined)
11.1% | Cc1cc(C)cc(C(=O)Nc2cccc(NC(=O)c3ccco3)c2)c1
-0.8% | Cc1nn(-c2ccccc2)c(C)c1/C=N/NC(=O)CSc1nc2ccccc2c(=O)n1-c1ccc(Br)cc1
-7.8% | O=C(CO/N=C/c1ccc(OC(F)F)cc1)N1CCc2ccccc21
50.1µM*! | CSc1ccc2c(c1)C(N1CCN(C)CC1)Cc1ccccc1S2 (centres undefined)
9.7% | CCOCCCNC(=O)CN1CCN(c2ccc(F)cc2)CC1
-19.2% | O=C1NCC(COc2ccc(Cl)cc2)O1 (centres undefined)
-15.5% | CSCCC(NC(=O)C1CCCC1)c1nnc2ccccn12 (centres undefined)
0.4% | C=CCC1(O)C(=O)N2C(=C1C(=O)OCC)c1ccc3ccccc3c1CC2(C)C (centres undefined)
35.5µM* | O=C(O)c1ccccc1NC(c1ccccc1)c1ccc2cccnc2c1O (centres undefined)
6.0% | CCOC(=O)N1CCN(Cc2nc(-c3ccc(C)cc3)no2)CC1
-2.2% | Cc1ccc(Nc2nc(NCc3ccco3)nc3nccnc23)cc1
-4.1% | CCOc1ccc2nc(SCC(=O)N3c4ccccc4Sc4ccccc43)sc2c1

VDR inh | structure
-5.4% | COc1c(Cl)cc(Cl)cc1C(=O)Nc1ccc(NC(=O)c2cccs2)cc1
4.6% | CCC(=O)N1CCc2cc(CNC(=O)c3ccc(F)cc3)ccc21
-7.9% | Cn1c(=O)c(C(=O)NCc2ccccc2)c(O)c2ccccc21
-6.4% | NC(=O)CC(NC(=O)c1cccc(Br)c1)c1ccc(N2CCN(c3ccccn3)CC2)c([N+](=O)[O-])c1 (centres undefined)
-3.1% | CCOCc1nnc(NC(=O)C2CCN(C(=O)c3ccco3)CC2)s1
7.2% | COc1ccc(S(=O)(=O)Nc2ccc(NC(C)=O)cc2)cc1OC
1.9% | O=[N+]([O-])c1c(NCCO)cc(N2CCC3(CC2)OCCO3)c2nonc12
1.8% | CCCCN(CC)C(=O)CSc1nc2c(sc3ccccc32)c(=O)n1CCc1ccccc1
7.1% | CCC1C(=O)Nc2nc(-c3ccccc3)c(-c3ccccc3)n2N=C1C (centres undefined)
-0.3% | CC(C)(C)C1=NN(c2ccc([N+](=O)[O-])cc2)C(c2ccccc2)C1 (centres undefined)
0.4% | COc1ccc(/C=C2\NC(=S)N(CC3CCCO3)C2=O)c(OC)c1C (centres undefined)
-2.1% | CC1Cc2ccccc2N1CC(=O)NCc1ccc2c(c1)OCO2 (centres undefined)
2.2% | O=C(O)c1ccccc1-n1c(-c2ccccc2)cc2c1CCCC2=O
0.7% | CCN(CC(=O)NCc1cccs1)C(=O)COc1ccc(C(C)=O)cc1
13.4% | CCCC(C)C(=O)NCc1ccc2c(c1)OCO2 (centres undefined)
-9.2% | CC(NCC1(N2CCOCC2)CCCCC1)C(=O)Nc1ccc(Cl)cc1Cl (centres undefined)
-3.8% | Cc1ncc2c(c1OC(=O)c1ccccc1)COC(C)(C)OC2
6.4% | CCOc1ccc(NC(=S)N2c3ccccc3CC2C)cc1 (centres undefined)
? | Cc1ccc(OCc2nnc(SCC(=O)c3cccs3)n2-c2ccccc2)cc1C
19.6% | CSc1cccc(NC(=O)CCc2ccccc2)c1
? | Cc1ccc(S(=O)(=O)CCC(=O)OCC(=O)NNC(=O)c2ccc([N+](=O)[O-])cc2)cc1
-2.0% | CN(C(=O)c1ccc(NC(=O)Cc2cccc(NC(=O)C3CCCN(C(=O)C4CC4)C3)c2)cc1)C1CC1 (centres undefined)
14.8% | CCN1CCN(C(C(=O)NC2CCCCC2)c2ccc(Cl)cc2)CC1 (centres undefined)
1.6% | Cc1ccc(C2(C)NC(=O)N(CC(=O)Nc3c(C)n(C)n(-c4ccccc4)c3=O)C2=O)cc1 (centres undefined)
-0.1% | O=C(Cc1coc2ccc3ccccc3c12)NC1CCCc2ccccc21 (centres undefined)
-15.5% | COc1ccc(NC(=O)Nc2cccs2)cc1OC
-1.5% | CCN(CC)C(=O)c1ccc(C(=O)c2c(C)cc(C)cc2C)cc1
-9.4% | COc1ccc(OC)c(-n2c(-c3cccc(C)c3)n[nH]c2=S)c1
-26.1% | COc1ccc(S(=O)(=O)NC(CC(=O)N2CCc3ccccc32)c2ccco2)cc1 (centres undefined)
-11.6% | COCc1c(C(=O)N/N=C/C2CC=CCC2)nnn1-c1nonc1N (centres undefined)

VDR inh | structure
-18.2% | CCN1C(=O)C(=O)N(CC(=O)c2cc(C)n(C3CC3)c2C)C1=O
-0.7% | Cn1cc(SCC(=O)N2CCCc3ccccc32)c2ccccc21
16.1% | COCCn1c(SCC#N)nnc1-c1ccccc1O
-2.2% | COc1ccc(C)cc1NC(=O)C1CCN(S(=O)(=O)c2cccc3cccnc23)CC1
-4.3% | CN(C)c1nc(N)c([N+](=O)[O-])c(NCc2ccccc2)n1
? | CC1(C)O[C@@H]2[C@@H](O1)C(c1ccccc1)(c1ccccc1)OP(=O)(O)OC2(c1ccccc1)c1ccccc1
-19.6% | CCN(CC(=O)Nc1c(F)cccc1F)C(=O)C1CC1
? | CCNC(=S)Nc1cccc(S(=O)(=O)NC2=NCCC2)c1
3.7% | CCOC(=O)C(Oc1ccc(=O)[nH]n1)C(C)=O (centres undefined)
? | C/C=C/Cn1c(SCc2ccccc2)nc2c1c(=O)[nH]c(=O)n2C
7.9% | CC(C)CCn1c(=O)c2ccccc2n2c(CCl)nnc12
-9.1% | N#Cc1c(N2CCN(C(=O)c3ccco3)CC2)nc(-c2ccccc2)c2c1CCCC2
-11.4% | CCOc1ccc(NC(=O)Cn2c(=O)n(-c3ccc(C)cc3)c(=O)c3cc(OC)c(OC)cc32)cc1
5.0% | CCc1ccc(NC(=O)Cn2c(=O)n(-c3cc(C)cc(C)c3)c(=O)c3oc4ccccc4c32)cc1
1.5% | COC(=O)c1ccc(CSc2nc3c(cnn3-c3ccccc3)c(=O)[nH]2)o1
-3.0% | CC(=NNC(=O)c1ccncc1)c1cc(Cl)ccc1Cl
18.9% | C/C(=N\NC(=O)c1ccccc1)c1ccccc1F
-7.5% | CN(Cc1nc(-c2ccccn2)no1)S(=O)(=O)c1ccc(Br)cc1
-3.2% | CCN(c1ccccc1)S(=O)(=O)c1ccc(Cl)nc1
-21.1% | O=C1c2ccc([N+](=O)[O-])cc2C(=O)N1c1ccc([N+](=O)[O-])cn1
-11.4% | O=C(c1c(F)cccc1F)N1CCN(c2ncc(Br)cn2)CC1
14.3% | CC(=O)c1ccc(N2CCN(C(=O)CCS(=O)(=O)c3ccc4c(c3)oc(=O)n4C)CC2)cc1
-21.1% | CCc1ccc(/C=C2/C(=O)N(CC)C(=S)N2C)s1
-10.7% | Cc1cccc(-c2nc3c4c(-c5ccccc5)c(-c5ccccc5)oc4ncn3n2)c1
-18.4% | O=C(Cn1c2c(c(=O)n3ncnc13)CCC2)N/N=C/c1cccs1
-5.4% | COCCN(C(=O)c1ccc2c(c1)C(=O)N(c1ccccc1Cl)C2=O)c1c(N)n(CC(C)C)c(=O)[nH]c1=O
14.1% | CCC(C)C(=O)Nc1nnc(SCC(=O)NC2CCCCC2)s1 (centres undefined)
13.6% | COc1cccc(CNC(=O)Cn2ncn3cccc3c2=O)c1OC
-1.6% | O=C(CSc1nnc(COc2ccccc2)o1)Nc1nccs1
-6.6% | O=CN(/C=C1\Sc2ccccc2C1=O)Cc1ccccc1

# Looked up one by one from above, three records:
VDR inh | structure
-18.2% | CCN1C(=O)C(=O)N(CC(=O)c2cc(C)n(C3CC3)c2C)C1=O
-6.4% | NC(=O)CC(NC(=O)c1cccc(Br)c1)c1ccc(N2CCN(c3ccccn3)CC2)c([N+](=O)[O-])c1 (centres undefined)
50.1µM*! | CSc1ccc2c(c1)C(N1CCN(C)CC1)Cc1ccccc1S2 (centres undefined)

# Another view of some results above:
SMILES	VDR inh
CCc1ccc(NC(=O)Cn2c(=O)n(-c3cc(C)cc(C)c3)c(=O)c3oc4ccccc4c32)cc1	5.0%
COc1cc(/C=C2\N=C(C)OC2=O)cc(OC)c1OC	39.8µM*
CCC1C(=O)Nc2nc(-c3ccccc3)c(-c3ccccc3)n2N=C1C (centres undefined)	7.1%

# Bioassay records deposited in PubChem by National Center for Advancing Translational Sciences (NCATS).

# Only part of the results is shown. The share of hits here may be higher or lower than overall.
